Screening data (PubChem)
VDR inh: vitamin D3 receptor (human) inhibition | Potency, µM, for inactives: max response, negative = inhibition, hits mostly inhibitors | P11473 | 400,000 tested, 0.93% active | VDR-SRC2-3 peptide fluorescence polarization, 2 h; active = well fitted inhibition curve with a large enough effect; inconclusive = small, poorly fitted or top-dose-only effect, or another doubt; inactive = no such curve, though single readings can be large or run the other way; also: series mostly up to about 120 µM
Target sequence (P11473 whole entry, looked up): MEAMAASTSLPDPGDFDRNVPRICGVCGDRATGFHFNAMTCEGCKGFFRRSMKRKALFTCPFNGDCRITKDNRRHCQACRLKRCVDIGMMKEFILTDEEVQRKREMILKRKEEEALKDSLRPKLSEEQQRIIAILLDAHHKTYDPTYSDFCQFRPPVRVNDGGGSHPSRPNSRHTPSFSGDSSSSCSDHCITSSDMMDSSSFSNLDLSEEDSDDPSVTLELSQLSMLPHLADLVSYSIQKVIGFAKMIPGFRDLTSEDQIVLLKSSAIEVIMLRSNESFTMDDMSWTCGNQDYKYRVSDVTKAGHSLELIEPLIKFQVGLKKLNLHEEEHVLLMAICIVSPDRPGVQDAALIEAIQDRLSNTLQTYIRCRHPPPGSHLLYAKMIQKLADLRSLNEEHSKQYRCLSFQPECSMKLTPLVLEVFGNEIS
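VDR–SRC2-3 interaction, FP format. Cmpds 23 nl via pintool, brief spin, 2 h ambient incubation.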
* = called active by the depositor; ? = inconclusive; & = joins results of further samples; [ ] = another dose, or the depositor's remark. % is scaled to controls: 0 for no effect and ±100 for the full control effect; potency is read from the fitted curve at half-maximal effect. Some of the compounds tested. The share of hits here may be higher or lower than overall.

SMILES | VDR inh
CCn1cc(/C=C(\NC(=O)c2cc(OC)c(OC)c(OC)c2)C(=O)N2CCN(C)CC2)c2ccccc21 | 25%
O=C(COc1ccc(S(=O)(=O)NCc2ccccc2)cc1Cl)N1CCOCC1 | 3%
CCC1(C)Cc2ccccc2-c2nc3n(c(=O)c21)CC(C(=O)O)S3 (configuration not stated) | -7%
NC(=O)NC(Cc1ccccc1)C(=O)N1CCN(S(=O)(=O)c2ccc(Cl)cc2)CC1 (configuration not stated) | -5%
C=CCOC(=O)C1=C(C)N=C2SCCC(=O)N2C1c1ccc(OC(=O)c2ccco2)cc1 (configuration not stated) | -6%
CCc1ccccc1NS(=O)(=O)c1cc(Br)cc2c1N(C(=O)C1CC1)CC2 | -9%
Cc1oc2ccc(O)cc2c1C(=O)c1ccccc1 | 1%
COCCCNC(=O)c1cn(CC(C)C)c(=O)c2c1c1ccccc1n2C | 18%&2%
Cc1ccc(O)c(CP(=O)(c2ccccc2)c2ccccc2)c1 | -6%
COc1ccc(CCNC(=O)CCc2nnc(Cc3ccc4c(c3)OCO4)o2)c(OC)c1 | 0%
Cc1cc(Cl)ccc1OC(C)C(=O)Nc1ccc(S(=O)(=O)N2CCOCC2)cc1 (configuration not stated) | 34%[activator]
COC(=O)c1cc(C(=O)Nc2ccc(C)cn2)cc([N+](=O)[O-])c1 | -4%
CC(=O)Nc1ccc2c(c1)C(=O)c1ccc(Cl)cc1-2 | -1%
CC1CCN(CC(=O)Nc2cccc([N+](=O)[O-])c2)CC1 | 15%
CCc1ccccc1NC(=O)c1nnn(CC(=O)Nc2cccc(C)c2)c1N | -1%
O=C1NC(=S)N/C1=C/c1cc([N+](=O)[O-])ccc1N1CCOCC1 | 12%
CCOC(=O)C1CCN(S(=O)(=O)c2ccc3oc(=O)ccc3c2)CC1 | -8%
COc1ccccc1C(=O)N/C(=C\c1ccc(Br)cc1)C(=O)NCCCO | -8%
Brc1ccc2nc(N3CCN(c4ccccc4)CC3)sc2c1 | -1%
O=C(CSc1ncn[nH]1)Nc1nc(-c2ccccc2)ns1 | 19%
Cc1cc(C)n2nc(C(=O)OCC(=O)NC(=O)c3ccccc3)nc2n1 | 4%
Cc1c(N2C(=O)c3ccc4c5c(ccc(c35)C2=O)CC4)c(=O)n(-c2ccccc2)n1C | -1%
CC(=O)c1cccc(N(C(=O)CNC(=O)c2ccco2)C(C(=O)NCC2CCCO2)c2ccccc2)c1 (configuration not stated) | -1%
COC(C[C@H](O)[C@H](C)[C@@H](O)COCc1ccccc1)OC | 11%
CCn1ncc(C2=NOC(C(=O)Nc3cnn(C45CC6CC(CC(C6)C4)C5)c3)C2)c1C (configuration not stated) | 11%
CC1(NC(=O)NCc2ccccc2)CCS(=O)(=O)C1 (configuration not stated) | -6%
COc1ccc(NC(=O)N(Cc2cc3cc(C)ccc3[nH]c2=O)CC2CCCO2)cc1 (configuration not stated) | 1%
CCC(=O)c1ccc(OCC(O)CN2CC(C)OC(C)C2)cc1 (configuration not stated) | -2%
O=C(NCc1ccco1)NCC(F)(F)F | -1%
CCC(=O)c1ccc(OCC(O)CNC(C)c2ccccc2)cc1 (configuration not stated) | -16%
CC(C)OCCCN1CN(S(=O)(=O)c2cccc(Cl)c2)c2nc3ccccc3nc21 | 1%
COc1ccc(Nc2c([N+](=O)[O-])ccc3c2=NC2(CCCCC2)N=3)cc1 | -3%
Cc1cnc(CNC(=O)C2CCC(=O)N(CCc3ccc(Cl)cc3)C2)cn1 (configuration not stated) | 12%
O=C(NNC(=O)c1cccc2ccccc12)c1cccc(F)c1 | -4%
COc1ccc(C)cc1NC(=O)C1CCCN(S(=O)(=O)c2ccc3c(c2)CCCN3C(C)=O)C1 (configuration not stated) | 10%&4%
Cc1cccc(OCCNc2ccc([N+](=O)[O-])cn2)c1 | -12%
CC(Oc1ccc(-c2nccc(-c3ccccn3)n2)cc1)C(=O)NN (configuration not stated) | 2%
CN(C1CCS(=O)(=O)C1)S(=O)(=O)c1ccc(C2CCCCC2)cc1 (configuration not stated) | -4%
CCCS(=O)(=O)c1nc(S(=O)(=O)c2ccc(C)cc2)c(NCc2ccccc2)s1 | 4%
CCc1ccc(-c2nc(SCC(=O)NC3CCS(=O)(=O)C3)n[nH]2)cc1 (configuration not stated) | 11%
Cc1nc(C)c(-c2csc(Nc3ncccc3C)n2)s1 | -8%
CN(C)/C=C/C(=O)c1ccc(F)cc1 | -9%
COc1ccccc1C(=O)C1CCCN(C(=O)CCC(=O)c2ccccc2)C1 (configuration not stated) | -16%
COc1ccccc1C(=O)NC1(C(F)(F)F)C(=O)Nc2c1c(=O)[nH]c(=O)n2-c1ccccc1 (configuration not stated) | -19%
Cn1cc(-c2nnnn2-c2cccc(C(F)(F)F)c2)c(C(F)(F)F)n1 | -5%
c1ccc(OCCOCCOc2ccccc2)cc1 | 1%
N#CC1c2ccccc2C=CN1C(=O)c1ccccc1 (configuration not stated) | -6%
O=C(Nn1cnnc1)C(Sc1ccccc1)c1ccccc1 (configuration not stated) | 0%
CCOc1ccc(S(=O)(=O)N2CCN(C(=O)CCC(=O)N3CCOCC3)CC2)cc1 | 5%
CCOC(=O)Cn1c(=O)n(CC2CCCO2)c2nc(-c3ccccc3Cl)nc(C(N)=O)c21 (configuration not stated) | 5%

17 successive compounds already listed:
SMILES | VDR inh
CC(C)OCCCN1CN(S(=O)(=O)c2cccc(Cl)c2)c2nc3ccccc3nc21 | 1%
COc1ccc(Nc2c([N+](=O)[O-])ccc3c2=NC2(CCCCC2)N=3)cc1 | -3%
Cc1cnc(CNC(=O)C2CCC(=O)N(CCc3ccc(Cl)cc3)C2)cn1 (configuration not stated) | 12%
O=C(NNC(=O)c1cccc2ccccc12)c1cccc(F)c1 | -4%
COc1ccc(C)cc1NC(=O)C1CCCN(S(=O)(=O)c2ccc3c(c2)CCCN3C(C)=O)C1 (configuration not stated) | 10%&4%
Cc1cccc(OCCNc2ccc([N+](=O)[O-])cn2)c1 | -12%
CC(Oc1ccc(-c2nccc(-c3ccccn3)n2)cc1)C(=O)NN (configuration not stated) | 2%
CN(C1CCS(=O)(=O)C1)S(=O)(=O)c1ccc(C2CCCCC2)cc1 (configuration not stated) | -4%
CCCS(=O)(=O)c1nc(S(=O)(=O)c2ccc(C)cc2)c(NCc2ccccc2)s1 | 4%
CCc1ccc(-c2nc(SCC(=O)NC3CCS(=O)(=O)C3)n[nH]2)cc1 (configuration not stated) | 11%
Cc1nc(C)c(-c2csc(Nc3ncccc3C)n2)s1 | -8%
CN(C)/C=C/C(=O)c1ccc(F)cc1 | -9%
COc1ccccc1C(=O)C1CCCN(C(=O)CCC(=O)c2ccccc2)C1 (configuration not stated) | -16%
COc1ccccc1C(=O)NC1(C(F)(F)F)C(=O)Nc2c1c(=O)[nH]c(=O)n2-c1ccccc1 (configuration not stated) | -19%
Cn1cc(-c2nnnn2-c2cccc(C(F)(F)F)c2)c(C(F)(F)F)n1 | -5%
c1ccc(OCCOCCOc2ccccc2)cc1 | 1%
N#CC1c2ccccc2C=CN1C(=O)c1ccccc1 (configuration not stated) | -6%

New compounds follow:
SMILES | VDR inh
O=C(c1ccc2c(c1)OCO2)C1CCCN(C(=O)C2CCOCC2)C1 (configuration not stated) | -5%
COc1ccc(-c2cn3c(n2)sc2cc(C(=O)Nc4cccc(SC)c4)ccc23)cc1 | 9%
O=C(O)c1ccc(NC(=O)c2ccccc2NC(=O)c2cccc(Br)c2)cc1 | ?
CCc1ccc2oc(-c3cccc(NC(=O)c4cc5ccccc5o4)c3)nc2c1 | 2%
CC1CCN(C(C(=O)O)c2ccccc2)CC1 (configuration not stated) | 1%
CC(=O)c1ccc(OCc2cc(C(=O)N3CCC[C@H]3CO)no2)cc1 | 7%
CC(=O)Nc1ccc(NC(=O)CSc2nnc(-c3cc4ccccc4o3)n2C)cc1 | 25%
CSCCC(NC(=O)c1ccc(Cl)cc1)C(=O)OCC(=O)Nc1cc(Cl)ccc1C#N (configuration not stated) | -5%
CC(=O)N/C(=N\c1nc(C)cc(C)n1)Nc1ccc(Cl)cc1Cl | -1%
CC(C)CC(=O)Nc1ccc(C(=O)COC(=O)CN2C(=O)NC3(CCCCC3C)C2=O)cc1 (configuration not stated) | -17%

An excerpt from above in order of number of heavy atoms, lowest first.
SMILES | VDR inh
CC1CCN(CC(=O)Nc2cccc([N+](=O)[O-])c2)CC1 | 15%
CCOc1ccc(S(=O)(=O)N2CCN(C(=O)CCC(=O)N3CCOCC3)CC2)cc1 | 5%
CC(=O)c1cccc(N(C(=O)CNC(=O)c2ccco2)C(C(=O)NCC2CCCO2)c2ccccc2)c1 (configuration not stated) | -1%

Next part.
SMILES | VDR inh
CCCc1n[nH]c2c1/C(=N/O)CC(c1ccccc1)C2 (configuration not stated) | 2%
Cc1csc(NC(=O)c2ccoc2C)n1 | -2%
COc1ccc(CN2CCC(n3nccc3NC(=O)CCc3ccccc3)CC2)c(C)c1C | 0%
Cc1cc(=O)[nH]c(N2CCOCC2)n1 | 17%
O=C(CSc1ccc(Br)cc1)N1CCOCC1 | -3%
COc1cccc(C(=O)Nc2nc3nc(-c4ccccc4)cc(=O)n3[nH]2)c1 | -2%
COC(=O)Nc1c(C)nn(Cc2ccccc2C)c1C | 14%
C#CCOCCOCCOCCNc1nc(N2CCN(C(=O)Cn3cc(CCCN=C(N)N)nn3)CC2)nc(N2CCN(C(=O)[C@H]([C@@H](C)O)n3cc(CCCCN)nn3)CC2)n1 | -1%
COc1c(C)cc(C(=O)C2CCCN(C(=O)c3cc(C)on3)C2)cc1C (configuration not stated) | 20%
COC(=O)c1ccc(N2C(=O)CC(NCc3ccccc3)C2=O)cc1 (configuration not stated) | 6%
COC(=O)c1c(SCC(=O)Nc2ccc(C)cc2)nc(=O)[nH]c1C | -3%
COc1ccc(C(=O)N2CCC[C@@]3(CCN(c4cccc(-c5ccccc5)c4)C3)C2)cc1 | 40µM*
Cc1cc(=O)n2nc(N3CCCC3C(=O)NCc3ccccn3)sc2n1 (configuration not stated) | 10%
O=C(Nc1ccc(N2CCOCC2)cc1)c1cc2ccccc2o1 | 6%
Cc1ccc(S(=O)(=O)Oc2ccccc2/C=N/NC(=O)c2c(Cl)cnn2C)cc1 | 10%
O=C(CN1C(=O)C2CC=CCC2C1=O)Nc1nccs1 (configuration not stated) | -3%
COc1ccc(CNC(=O)COc2cc(O)c3c(c2)OC(C)(C)CC3=O)cc1 | 1%
Cc1cc2c(cc1C)CSC(c1ccc3ccccc3c1O)SC2 | -10%
CN1C(=O)C(C)(C)c2cc(S(=O)(=O)N3CCC(C(=O)NCc4ccc(F)cc4)CC3)ccc21 | -1%
CCOC(=O)/C(C#N)=C/c1cn(CCC(=O)O)nc1-c1ccc(Cl)cc1 | -18%
O=C(NCCc1ccc(F)cc1)Nc1ccc2c(c1)OCO2 | -19%
COc1ccc(C2c3c(-c4ccccc4)n[nH]c3C(=O)N2c2ccc(C(=O)O)cc2)c(OC)c1 (configuration not stated) | -23%
Cc1ccc(NC(=O)CN(C)S(=O)(=O)c2ccc(Cl)s2)c(O)c1 | 12%
O=C(C1CCC(CNc2c(N3CCCCC3)c(=O)c2=O)CC1)N1CCc2ccccc2C1 (configuration not stated) | -11%
COc1ccc(CN(C)c2ccc(-c3nc(-c4ccccc4)no3)cc2[N+](=O)[O-])cc1 | 4%
N#CCCn1c(=O)c(-c2cc(F)cc(F)c2)nc2cnc(N3CCOCC3)nc21 | -13%
CN(c1ccccc1)S(=O)(=O)c1ccc(C(=O)NNC(=O)c2ccccc2F)cc1 | -7%
CS(=O)(=O)N(CC(=O)NCCSc1ccccc1)c1ccc2c(c1)OCO2 | -9%
O=c1c2sc3ccccc3c2n(Cc2cccc(C(F)(F)F)c2)c(=O)n1Cc1ccco1 | 7%
CN(C)S(=O)(=O)c1ccc(C(=O)OCCCN=C2NS(=O)(=O)c3ccccc32)cc1 | -22%
COc1ccccc1C(=O)CSc1nnc(-c2ccco2)o1 | -12%
CC1CCCN(C(=O)c2ccc(NS(=O)(=O)c3cccc([N+](=O)[O-])c3)cc2)C1 (configuration not stated) | -5%
CCN1C(=O)/C(=C/C=C2\C=CN(CC)c3ccccc32)SC1=S | -2%
O=C(NN=Cc1ccc(N2CCOCC2)cc1)c1cc2ccccc2cc1O | 2%
CN(CC1CCCO1)S(=O)(=O)c1ccc(C(=O)Nc2ccc(F)cc2)cc1 (configuration not stated) | 20%
CC(=O)NC(Cc1cccc(C)c1)C(=O)NC1CCN(C(=O)NCc2ccccc2)CC1 (configuration not stated) | 14%
Cc1ccc(C(=O)N2CCc3ccccc32)cc1[N+](=O)[O-] | -10%
Cn1cc(O)nc1NC(=O)Nc1cccc(Cl)c1 | -6%
CN(C)Cc1ccccc1-c1cc(NC2CC2)ncn1 | -2%
COc1cc(C(=O)OC(C)C(=O)N2CCc3ccccc3C2)ccc1OCC(=O)N1CCOCC1 (configuration not stated) | 0%
CSC(=Nc1ccccc1)C(C#N)c1nc2ccccc2[nH]1 (configuration not stated) | 13%
NC(=O)C1CCCN(S(=O)(=O)c2ccc(Br)cc2)C1 (configuration not stated) | 16%
Cc1ccc(NC(=O)Cc2nnc(SCC(=O)NC3CCCC3)n2C)c(C)c1 | 6%
CC(=O)Nc1cccc(C(=O)Nc2ccccc2C(=O)O)c1 | -10%
CC(C)OC(=O)c1cc2c(ccn2-c2ccc(F)cc2)n1CC(=O)N1CCN(C(=O)c2ccco2)CC1 | ?
CCOc1ccc(N2CC(=O)Nc3ccccc3NCC2=O)cc1 | -10%
O=C1CC(SC(=Nc2ccccc2)Nc2ccccc2)C(=O)N1c1ccc(Cl)cc1 (configuration not stated) | 10%
NS(=O)(=O)c1ccc(CNC(=O)Cc2ccccc2[N+](=O)[O-])cc1 | -7%
Cc1cccc(NC(=O)NN2CCN(C)CC2)c1C | -6%
Oc1cc(-c2ccncc2)cc2cccnc12 | -3%
C[C@H](CO)N1C[C@H](C)[C@@H](CN(C)S(=O)(=O)c2cccs2)Oc2c(NC(=O)Nc3ccc4c(c3)OCO4)cccc2C1=O | -17%
CCc1ccc(-c2nc(CSCC(=O)N3CCN(c4ccccn4)CC3)c(C)o2)cc1 | 12%
